# StopGo RLuc: lowers the Renilla signal of an FMDV 2A StopGo reporter | HEK cells with a luciferase reporter of 2A StopGo recoding | Potency, µM (highest dose often 57.5 µM), for inactives: top-dose signal change, negative = less light | 0.32% of 120,000 active | AID 1745857; active means well fitted falling curve with a large enough effect; inconclusive means small, poorly fitted or top-dose-only effect; inactive means no such curve, though single readings can be large or run the other way; further: nearly all actives have a fitted effect of over 55% in size; overnight with compound
# StopGo FLuc: lowers the firefly signal of an FMDV 2A StopGo reporter; Potency, µM (top dose mostly 57.5 µM), without a hit: top-dose signal change, negative = less light; 0.23% of 120,000 active; HEK cells with a luciferase reporter of 2A StopGo recoding; AID 1745856; active = well fitted falling curve with a large enough effect; inconclusive = small, poorly fitted or top-dose-only effect; inactive = no such curve, though single readings can be large or run the other way; further: nearly all actives have a fitted effect of over 60% in size; overnight with compound
# Starred values were filed as active, the others as inactive; u = inconclusive; & = joins results of further samples; [ ] = dose if it differs, or a comment. On the % scale 0 is the no-effect control and ±100 the full control effect; potency means the concentration at half of the fitted maximal effect.
SMILES,StopGo RLuc,StopGo FLuc
COc1ccc(-n2c(=O)c3sc4ccccc4c3n(Cc3ccccc3C)c2=O)cc1OC,12%,15%
O=C(c1ccc(Br)s1)N(Cc1ccc(Br)cc1)C1CC1,-1%,-23%
COC(=O)c1ccc(NC(=O)CCS(=O)(=O)c2ccc(Br)s2)cc1,-7%,-20%
Cc1nc2cc(Cl)ccc2cc1C(=O)NCC(F)(F)F,3%,-3%
COc1ccc(-c2nc3ccccc3o2)cc1NC(=O)c1cccc(Cl)c1,1%,109%[activator]
Cc1c(-c2nnc(-c3ccc(OC(C)C)cc3)o2)oc2ccccc12,-4%,9%
Cc1cc(C(=O)O)ccc1NS(=O)(=O)c1ccc(S(=O)(=O)N2CCCCC2)cc1,-6%,-5%
CCn1cc(C(=O)OCC(=O)Nc2ccc(C)c(Cl)c2)c(=O)c2ccc(C)nc21,-7%,-1%
Cc1ccc(CNc2ccc(-c3nc(C(C)C)no3)cc2[N+](=O)[O-])cc1,-6%,-7%
Cc1ccc(N2CCN(C(=O)c3nn(C)c4c3CS(=O)(=O)c3ccccc3-4)CC2C)cc1 (stereo not given),27%,-17%
CCn1nnc2cc(C(=O)Nc3cc(C)ccc3C)ccc21,17%,74%[activator]
O=C(O/N=C1\CCCc2oc3c(c21)CCCC3)c1ccc(Cl)c(Cl)c1,3%,-1%
CC(C)(C)OC(=O)N1CCC(c2c(C(=O)NCc3ccc4c(c3)OCO4)cnn2-c2ccccc2Cl)CC1,7%,-18%
CCN(CC)CCOC(=O)C(c1ccccc1)C1CCCCC1 (stereo not given),-12%,-21%
CC(=O)c1c(C)[nH]c(C(=O)C(C)OC(=O)c2c(F)cccc2F)c1C (stereo not given),4%[1.06 µM],0%
Cc1ccc(-c2noc(-c3ccccc3NC(=O)c3ccccc3)n2)cc1,-18%,33%[activator]
CCOC(=O)COc1ccc2c(=O)c(-c3ccc(OC)cc3)c(C)oc2c1,-4%,10%
O=C(Nc1cc(F)cc(F)c1)c1ccc2ccccc2n1,16%,-12%
O=C(C1=Cc2ccccc2OC1)N1CCN(S(=O)(=O)c2cccc(Cl)c2)CC1,-2%,-6%
CC(C)(C)c1ccc2cc(C(=O)N3CCCC3)[nH]c2c1,2%,160%[activator]
Cc1ccc(C(=O)NC(C)c2ccc(F)c(F)c2)s1 (stereo not given),6%,20%
CCOC(=O)C(=O)Nc1ccc(C(N)=O)cc1,5%,11%
CCC(C)NC(=O)C1CCN(S(=O)(=O)c2ccc3c(ccn3CC)c2)CC1 (stereo not given),-7%,-18%
COc1cc(C2CC(=O)Nc3nc(-c4ccccc4)[nH]c(=O)c32)cc(OC)c1O (stereo not given),-9%,-2%
O=C(c1cc(F)ccc1F)C1CCN(CCc2ccncc2)CC1,-2%,-1%
O=C(Cc1noc(C(=O)NC2CCCCC2)n1)Nc1cccc2ncccc12,-3%,18%
CCNC(=O)CNc1nc(C(F)(F)F)nc2ccccc12,-1%,-2%
CC#C[C@]1(O)CC[C@H]2[C@@H]3CCC4=CC(=O)CCC4=C3[C@@H](c3ccc(N(C)C)cc3)C[C@@]21C,u,u
CN(C)C(=O)CN(C)c1ncnc2sc3c(c12)CCC3,-1%,-11%
Cc1nn(-c2ccc(N3CCCC3)nn2)c(C)c1CCC(=O)NCCc1ccco1,4%,51%[activator]
COc1ccc(NC(=O)Nc2nc3cc(C)c(C)cc3s2)cc1OC,-7%,99%[activator]
NC(=O)c1ccccc1NCC(=O)Nc1ccc(OC(F)(F)F)cc1,5%,0%
COCCOc1cc(N)ccc1OC,-3%,-1%
COCc1nnc(NC(=O)c2ccc3c(ccn3C)c2)s1,68%[activator],134%[activator]
CCn1c(=O)c(C(=O)Nc2ccc(Cl)c(C(F)(F)F)c2)nc2cc(C)c(C)cc21,20%,47%[activator]
Cc1ccc(Nc2nc3ccc(C)cc3nc2-n2nc(C)cc2C)c(C)c1,-2%,1%
CCCCNC(=O)CSc1nc2nc(C)c(Cc3c(F)cccc3Cl)c(C)n2n1,-3%,-5%
Cn1c(=O)[nH]c(=O)c2c1nc(NC1CCCCC1)n2CCO,-12%,-5%
O=C(O)CCCCCNC(=O)Cn1ccc2c(Cl)cccc21,-2%,6%
O=C(NCc1cccc(Cl)c1)c1ccc2c(Cl)c3c(nc2c1)CCCC3,3%,-1%
COc1ccc(NC(=O)c2ccco2)cc1NC(=O)COc1ccc(Cl)c(C)c1,-17%,11%
Cc1cccc(NC(=O)CN2C(=O)c3cccnc3Oc3ccc(Cl)cc32)c1C,4%,10%
Cc1nc(N2CCN(Cc3ccccc3)CC2)[nH]c(=O)c1C,-7%,-8%
Cc1cccc(Nc2nnc(SCC(=O)N3CCOCC3)s2)c1,-2%,115%[activator]
CN(C)c1ncc(C(=O)NCc2ccccc2Cl)cn1,44%&30%[activator],11%&-2%
O=S(Cc1ccccc1)Cc1ccc(F)cc1 (stereo not given),-4%,-7%
O=c1oc2cc(O)ccc2cc1-c1nc(-c2ccc3ccccc3c2)cs1,0%,24%
CS(=O)(=O)Oc1ccc2cc(-c3ccccc3)c(=O)oc2c1,18%,48%
CC(=O)c1ccc(NC(=O)Cn2c(=O)n(Cc3ccco3)c(=O)c3sc4ccccc4c32)cc1,-5%,-12%
Cc1ccc(S(=O)(=O)NCC2CCC(C(=O)NCc3ccc(F)cc3)CC2)cc1 (stereo not given),6%,-7%

# Three structures already listed, arranged by formula weight, ascending.
SMILES,StopGo RLuc,StopGo FLuc
O=S(Cc1ccccc1)Cc1ccc(F)cc1 (stereo not given),-4%,-7%
Cc1nc(N2CCN(Cc3ccccc3)CC2)[nH]c(=O)c1C,-7%,-8%
Cc1cccc(NC(=O)CN2C(=O)c3cccnc3Oc3ccc(Cl)cc32)c1C,4%,10%

# (listing goes on)
SMILES,StopGo RLuc,StopGo FLuc
COc1ccc(-c2cc(C(F)(F)F)nc(SCC(=O)NCC(C)C)n2)cc1OC,-8%,-19%
Cn1nccc1C(=O)Nc1sc2c(c1C#N)CCCCC2,-14%,145%[activator]
N#Cc1ccccc1NC(=O)c1cccn(Cc2ccccc2)c1=O,70%[activator],0%
CNS(=O)(=O)c1cc(-c2nnc(Nc3cc(C)ccc3C)c3ccccc23)ccc1C,309%[activator],-7%
Cc1ccc(N(Cc2nnc(SCC(=O)c3cc(C)n(C4CC4)c3C)n2C)S(C)(=O)=O)cc1,11%,19%
NS(=O)(=O)c1ccc(N2N=C(c3ccccc3)CCC2=O)cc1,2%,7%
Cc1cccc(-c2nn3c(=O)cc(CN4CCN(C(=O)/C=C/c5ccccc5)CC4)nc3s2)c1,-10%,0%
Cc1nc2cc(NC(=O)c3cccc(S(=O)(=O)Nc4ccc(Cl)cc4)c3)ccc2o1,-16%,u
O=C(Nc1ccc(F)c(Cl)c1)N1CCN2CCCCC2C1 (stereo not given),-6%,3%
COc1ccc(S(=O)(=O)Nc2cccc(-c3ccc(N4CCC(C)CC4)nn3)c2)cc1OC,9%,88%[activator]

# As a short view, some entries already given:
SMILES,StopGo RLuc,StopGo FLuc
O=C(c1ccc(Br)s1)N(Cc1ccc(Br)cc1)C1CC1,-1%,-23%
COC(=O)c1ccc(NC(=O)CCS(=O)(=O)c2ccc(Br)s2)cc1,-7%,-20%
Cc1nc2cc(Cl)ccc2cc1C(=O)NCC(F)(F)F,3%,-3%
COc1ccc(-c2nc3ccccc3o2)cc1NC(=O)c1cccc(Cl)c1,1%,109%[activator]
Cc1c(-c2nnc(-c3ccc(OC(C)C)cc3)o2)oc2ccccc12,-4%,9%
Cc1cc(C(=O)O)ccc1NS(=O)(=O)c1ccc(S(=O)(=O)N2CCCCC2)cc1,-6%,-5%
CCn1cc(C(=O)OCC(=O)Nc2ccc(C)c(Cl)c2)c(=O)c2ccc(C)nc21,-7%,-1%
Cc1ccc(CNc2ccc(-c3nc(C(C)C)no3)cc2[N+](=O)[O-])cc1,-6%,-7%
Cc1ccc(N2CCN(C(=O)c3nn(C)c4c3CS(=O)(=O)c3ccccc3-4)CC2C)cc1 (stereo not given),27%,-17%
CCn1nnc2cc(C(=O)Nc3cc(C)ccc3C)ccc21,17%,74%[activator]
O=C(O/N=C1\CCCc2oc3c(c21)CCCC3)c1ccc(Cl)c(Cl)c1,3%,-1%
CC(C)(C)OC(=O)N1CCC(c2c(C(=O)NCc3ccc4c(c3)OCO4)cnn2-c2ccccc2Cl)CC1,7%,-18%
CCN(CC)CCOC(=O)C(c1ccccc1)C1CCCCC1 (stereo not given),-12%,-21%
CC(=O)c1c(C)[nH]c(C(=O)C(C)OC(=O)c2c(F)cccc2F)c1C (stereo not given),4%[1.06 µM],0%
Cc1ccc(-c2noc(-c3ccccc3NC(=O)c3ccccc3)n2)cc1,-18%,33%[activator]
CCOC(=O)COc1ccc2c(=O)c(-c3ccc(OC)cc3)c(C)oc2c1,-4%,10%
O=C(Nc1cc(F)cc(F)c1)c1ccc2ccccc2n1,16%,-12%
O=C(C1=Cc2ccccc2OC1)N1CCN(S(=O)(=O)c2cccc(Cl)c2)CC1,-2%,-6%

# The list continues.
SMILES,StopGo RLuc,StopGo FLuc
COC(=O)C1=C(C)NC(=O)CC1C(=O)Nc1ccc(Cl)cc1 (stereo not given),-9%,15%
COc1ccccc1OCC(=O)OCC(=O)c1cc(Cl)ccc1Cl,2%,-3%
CCn1c(=O)n(CC)c2cc(N3CCCCC3)c(NC(=O)Nc3cc(Cl)ccc3OC)cc21,u,u
CCC(C(=O)NCCCN(CC)CC)n1ncn2c(cc3occc32)c1=O (stereo not given),0%,u
COc1ccc(-c2nc(Nc3ccc(F)c(F)c3F)sc2CCC(=O)O)cc1,-8%,42%[activator]
CC(C)Oc1ccc(CNC(=O)C2CCN(C(=O)N3CCOc4ccc(Cl)cc43)CC2)cc1,-5%,-20%
Clc1ccccc1CSCc1ccc(-c2nc(-c3ccncc3)no2)o1,-4%,26%
CC(NC(=O)C1=Cc2ccccc2OC1)c1ccccc1 (stereo not given),33%[activator],14%
